N370S GC – inhibits or activates N370S mutant glucocerebrosidase | P04062 | N370S GC spleen homogenate, 4MU-glucoside fluorescence | Potency, µM (top dose mostly 59.4 µM), for the others: top-dose activity change, negative = inhibition, usual class: inhibitors | actives 0.092% (n = 330,000);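 further: 0% = full enzyme activity and -100% = no enzyme basal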
FEN1 inhibitor – blocks human flap endonuclease 1; P39748; Potency, µM (top dose mostly 114 µM), for inactives: top-dose activity change, negative = inhibition, hits mostly inhibitors; Recombinant FEN1 flap cleavage, fluorescence, 15 min; actives 0.35% (n = 390,000); AID 588795; further: nearly all actives have a fitted effect of over 65% in size
Target sequence (P39748 whole entry, looked up): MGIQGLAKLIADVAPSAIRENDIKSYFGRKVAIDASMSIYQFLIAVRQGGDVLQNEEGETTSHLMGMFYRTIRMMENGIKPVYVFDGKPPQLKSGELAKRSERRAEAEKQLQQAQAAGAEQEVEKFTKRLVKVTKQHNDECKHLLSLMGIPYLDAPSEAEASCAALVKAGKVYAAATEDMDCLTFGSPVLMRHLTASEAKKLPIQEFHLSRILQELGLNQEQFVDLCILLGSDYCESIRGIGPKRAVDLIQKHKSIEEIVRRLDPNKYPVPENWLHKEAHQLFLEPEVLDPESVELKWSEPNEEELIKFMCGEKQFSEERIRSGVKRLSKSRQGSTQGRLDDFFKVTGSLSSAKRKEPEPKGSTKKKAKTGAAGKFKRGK
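Potency values derive from four-parameter Hill fits of normalized qHTS data. The reaction used 10 nM FEN1 preincubated 15 min at room temperature with compound, then 50 nM DNA substrate, read at 0 and 15 min.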
Numbers without * were called inactive; ? = inconclusive; / = not tested or not shown; [ ] = another dose, or the depositor's remark. The call rests on the fitted dose curve; in most records, active means well fitted curve in the direction sought with a large enough effect; inconclusive means small, poorly fitted or top-dose-only effect, or another doubt; inactive means no such curve, though single readings can be large; an effect the other way counts as inactive or inconclusive. Unless noted, on the % scale 0 is the no-effect control and ±100 the full control effect; potency means the concentration at half of the fitted maximal effect. Not all compounds are listed; most or all hits stand in other tables.

SMILES | N370S GC | FEN1 inhibitor
COc1ccc(NC(=O)Nc2ccc3c(c2)C(=O)N([C@H](C)CO)C[C@H](C)[C@@H](CN(C)C(=O)Nc2ccc(C(F)(F)F)cc2)O3)cc1 | / | 3.3%
Cc1ccccc1NC(=O)c1sc(Cl)nc1-c1ccccc1 | 2.6% | -3.8%
CCOc1ccc(NC(=O)c2cc3ccccc3cc2OC)cc1 | ? | 10.0%
Cc1c(/C=N/O)c2ccccn2c1C=O | -12.9% | 9.1%
COc1ccc(NC(=O)Cn2c(CCC(=O)O)ccc2-c2ccccc2)cc1Cl | / | 0.3%
CCCc1c(C(=O)N/N=C/c2cccc3ccccc23)nnn1-c1nonc1N | 2.7% | 1.4%
CCOc1ccccc1NS(=O)(=O)c1cc2c3c(c1)C(C)C(=O)N3CCC2 (stereo not given) | -0.4% | -11.5%
CCOc1ccc(NC(=O)C(C)Sc2nc3ncccc3o2)cc1 (stereo not given) | / | -4.3%
O=C(c1cccs1)[C@@H]1[C@@H]2C(=O)N(Cc3ccc4c(c3)OCO4)C(=O)[C@@H]2C2c3ccccc3C=CN21 (stereo not given in full) | -27.2% | /
COC(=O)c1ccc(NC(=O)CSc2nc3cc4ccccc4cc3[nH]2)cc1 | / | 12.0%
COc1ccc(C(=O)Nc2ccnc(-c3cccnc3)n2)cc1 | -7.4% | -14.5%
COc1cc2[nH]c3c(=O)n(CCN4CCOCC4)cnc3c2cc1OC | -26.8% | 2.4%
CC(C)c1cnc2c(c1SCC(=O)Nc1cccc([N+](=O)[O-])c1)c(=O)n(C)c(=O)n2C | / | -25.0%
Nc1cc(C(=O)OCC(=O)NNC(=O)c2cccs2)ccc1Cl | -0.1% | -2.7%
CC1=NNC(=O)C1CC(=O)N/N=C(/C)c1cccc([N+](=O)[O-])c1 (stereo not given) | -4.8% | 2.7%
CSc1nncc(-c2ccc(F)cc2)n1 | 1.6% | 0.9%
CC(C)(C)C(=O)Nc1cc(C(F)(F)F)ccc1N1CCOCC1 | -4.2% | -12.9%
OC1C2CN3CCN(C2)CC1(Cc1ccccc1)C3 (stereo not given) | -10.1% | -0.4%
CCC(C(=O)NCCc1ccccc1)n1nc(C)n2c(cc3sccc32)c1=O (stereo not given) | / | 2.2%
Cc1noc(C)c1NC(=O)Nc1cccc2c1O[C@H](CN(C)C(=O)Nc1ccc(C(F)(F)F)cc1)[C@@H](C)CN([C@H](C)CO)C2=O | / | -7.1%
O=C(NCc1cccnc1)c1cccc(F)c1 | -7.0% | 4.5%
O=C(CCCOc1ccccc1)Nc1cccc(C(=O)O)c1 | -12.5% | -9.5%
O=C(NCc1ccc2c(c1)OCO2)Nc1ccc(Cl)cc1 | -15.5% | -2.3%
CC(=O)c1c(C)oc2ccc(N(C(=O)C3CCCCC3)S(=O)(=O)c3cc([N+](=O)[O-])ccc3C)cc12 | -1.7% | -4.7%
CC(C)N1CCN(Cc2ccc(C#CC(C)(C)O)cc2)CC1CCO (stereo not given) | 3.7% | -11.4%
Cc1cc2cc3c(cc2nc1SCC(=O)Nc1nc(C)c(C)s1)OCO3 | 15.4% | -8.0%
O=C(CN1C(=O)NC2(CCCC2)C1=O)NCCc1ccc(F)cc1 | / | 0.7%
Cc1ccnc(N2C(=O)c3ccc([N+](=O)[O-])cc3C2=O)c1 | -2.2% | /
CCCCOC(=O)c1ccc(NC(=O)C(=O)NCc2cccnc2)cc1 | 1.6% | 13.8%
Cc1cc(OCC(=O)N(Cc2ccc(N(C)C)cc2)Cc2ccco2)cc(C)c1Cl | / | -25.0%
Cc1cccc(Nc2nc(N)c([N+](=O)[O-])c(N3CCC(C)CC3)n2)c1 | 6.2% | -24.0%
C/C(=N\NC(=O)Cc1ccccc1)c1ccc(Cl)s1 | -8.1% | 1.6%
O=C(O)C(NS(=O)(=O)c1ccc(F)cc1)c1ccccc1 (stereo not given) | -12.6% | -2.6%
CNC(=O)/C(=C\C=C\c1ccccc1)NC(=O)c1ccc([N+](=O)[O-])cc1 | -2.8% | 0.4%
O=C(Nc1nc(-c2ccccc2)c(-c2ccccc2)s1)c1ccc(S(=O)(=O)N2CCCCC2)cc1 | 1.9% | -6.6%
O=C(Nc1ccccc1Br)c1ccc(N2CCCC2=O)cc1 | 0.7% | 0.6%
CC12CC3(C)CC(C)(C1)CC(C(=O)NC(=S)NC(C)(C)C)(C2)C3 | 1.6% | 1.1%
O=C(Cn1cnc2c(nnn2Cc2ccccc2F)c1=O)NCc1ccco1 | -8.0% | -1.3%
C=CCN(Cc1cn(C)nc1-c1cccc(Cl)c1)C1CCS(=O)(=O)C1 (stereo not given) | -16.8% | 8.3%
COc1ccc2c(c1)c1c(c(=O)n(Cc3ccccc3)c(=O)n1Cc1ccc(C)cc1)n2C | / | -9.2%
CC1Cc2ccccc2N1C(=O)CN1C(=O)CN(C)C(=O)c2ccccc21 (stereo not given) | 8.6% | -17.4%
CC(=O)NCCn1c(SCc2cc(=O)n3cc(Cl)ccc3n2)nc2ccccc2c1=O | 11.8% | -1.6%
CCOc1cc(C2C3=C(CCCC3=O)N(C)C3=C2C(=O)CCC3)cc(Cl)c1O | -4.9% | 6.6%
O=[N+]([O-])c1cccc(C2CC(c3ccccc3)=NN2c2ccccc2)c1 (stereo not given) | 4.3% | -0.8%
O=C(Nc1ccccc1N1CCCC1)c1ccc2c(c1)OCO2 | 4.8% | -9.1%
O=C(CSc1ccc([N+](=O)[O-])cn1)Nc1ccccc1N1CCOCC1 | -14.8% | 0.4%
Cc1c(NC(=O)COC(=O)C2CC3C=CC2C3)c(=O)n(-c2ccccc2)n1C (stereo not given) | 29.2% | 2.8%
Cc1ccc(-n2c(C)cc(/C=N/NC(=O)c3ccncc3)c2C)c(C)c1 | -16.6% | 9.2%
O=C(CN(Cc1ccco1)C(=O)c1cc(=O)[nH]c2ccccc12)Nc1ccccc1Br | -10.0% | 1.2%
COc1ccc(-c2nc(CS(=O)CC(=O)NCc3ccccc3Cl)c(C)o2)cc1OC (stereo not given) | / | -4.0%

Reprinted at random: 6 compounds from above
SMILES | N370S GC | FEN1 inhibitor
Cc1ccc(-n2c(C)cc(/C=N/NC(=O)c3ccncc3)c2C)c(C)c1 | -16.6% | 9.2%
O=[N+]([O-])c1cccc(C2CC(c3ccccc3)=NN2c2ccccc2)c1 (stereo not given) | 4.3% | -0.8%
CC1Cc2ccccc2N1C(=O)CN1C(=O)CN(C)C(=O)c2ccccc21 (stereo not given) | 8.6% | -17.4%
CCOc1cc(C2C3=C(CCCC3=O)N(C)C3=C2C(=O)CCC3)cc(Cl)c1O | -4.9% | 6.6%
O=C(Nc1ccccc1N1CCCC1)c1ccc2c(c1)OCO2 | 4.8% | -9.1%
COc1ccc(-c2nc(CS(=O)CC(=O)NCc3ccccc3Cl)c(C)o2)cc1OC (stereo not given) | / | -4.0%

Later entries:
SMILES | N370S GC | FEN1 inhibitor
Cc1ccc(NC(=O)C2C3C=CC4(O3)C2C(=O)N(CCCN2CCOCC2)C4C(=O)NC2CCCCC2)cc1Cl (stereo not given) | -0.7% | -2.9%
CCc1nn(C(C)C(=O)NCc2cccc(Cl)c2)c(=O)c2cc3occc3n12 (stereo not given) | 10.0% | -17.2%
O=C(COC(=O)COc1ccccc1)Nc1ccccc1OC(F)F | -5.2% | 1.5%
COc1ccc(C2CCCN2C(=O)Nc2ccccc2)cc1OC (stereo not given) | -5.5% | -7.7%
CCNC(=O)COC(=O)c1cc(-c2ccccc2)nn1-c1ccccc1 | 4.0% | 0.9%
Cc1cc(O)c(C(c2ccccc2)N2CCN(c3ccc(F)cc3)CC2)c(=O)n1Cc1ccco1 (stereo not given) | / | -13.1%
COc1ccc(C(=O)NCC(=O)OCC(=O)NC23CC4CC(CC(C4)C2)C3)cc1 | / | -2.0%
CCOC(=O)Oc1ccc2oc(=O)cc(C)c2c1 | 0.9% | -4.0%
CCCCC(CC)C(=O)Oc1ccc(O)c(C(C)(C)C)c1 (stereo not given) | -1.2% | -16.9%
Cc1ccc(CN2C(=O)/C(=C3\SC(N4CCOCC4)=NC3=O)c3cc(Br)ccc32)cc1 | 4.2% | /
CCOc1nc(NCCO)nc(NCCC2=CCCCC2)n1 | -5.0% | -10.1%
O=C(Cc1n[nH]c(=O)c2ccccc12)Nc1cccc(S(=O)(=O)N2CCCCCC2)c1 | / | -12.4%
COc1cccc(-c2nnc(NC(=O)c3ccc(Cl)s3)o2)c1 | -3.0% | 11.1%
CCC(C)NC(=O)c1ccccc1NC(=O)c1ccc(CSc2ccc(C)cc2)cc1 (stereo not given) | 10.5% | -4.6%
CCN(CC)C(=O)OCCc1cc2ccccc2c(=O)o1 | / | -4.8%
Fc1ccc(/C=N/NC(=S)Nc2cccnc2)cc1 | 8.8% | -0.4%
COc1ccc(C(C#N)(CCC#N)CCC#N)cc1OC | -8.5% | 0.1%
CC(C)=CCCC(C)CN(C)CCc1ccccn1 (stereo not given) | 2.6% | -10.2%
O=C(NCc1cccs1)c1ccc(CS(=O)Cc2cccc(Cl)c2)o1 (stereo not given) | 26.9% | -5.3%
O=C(O)C1=C(OCc2ccc(F)c(F)c2)C(=O)NCC1 | 3.7% | 6.0%

Individual results from above:
COc1ccc(C(=O)Nc2ccnc(-c3cccnc3)n2)cc1 | FEN1 inhibitor: -14.5%
O=C(NCc1ccc2c(c1)OCO2)Nc1ccc(Cl)cc1 | FEN1 inhibitor: -2.3%

The results go on.
SMILES | N370S GC | FEN1 inhibitor
COc1cccc(C(=O)Nc2cccc(-c3nnc(-c4ccco4)o3)c2)c1 | -11.5% | -4.6%
CCOc1ccc(C2NC(=O)NC(C)=C2C(=O)OC)cc1C (stereo not given) | -9.0% | 1.3%
COc1c(C)cc(C(=O)C2CCCN(C(=O)c3cc(C)nc(C)n3)C2)cc1C (stereo not given) | 3.5% | -9.6%
CNCc1c(OCc2ccc(F)cc2)ccc2ccccc12 | -19.0% | 19.7%
C[C@@H](/C=C/c1ccc2ccccc2c1)C1COC(=O)C[C@H]1O (stereo not given in full) | -1.7% | 5.6%
OC(CNC1CCCCC1)CN1CCN(CC(O)CNC2CCCCC2)CC1 (stereo not given) | 3.9% | /
CC(=O)Nc1ccccc1O | -3.5% | 1.6%
O=C(Cn1nc(-c2ccccc2F)ccc1=O)Nc1ccc(S(=O)(=O)N2CCCCCC2)cc1 | 9.6% | -6.6%
COc1cc2cc(C(=O)O)n(C)c2c(OC)c1OC | -16.6% | 1.2%
CCN(CC(=O)Nc1ccc(OC)cc1)C(=O)c1ccccc1Sc1ccccc1C#N | 1.8% | -13.9%
CSc1ccccc1C(=O)Nc1cccc(N(C)S(C)(=O)=O)c1 | 6.8% | 0.0%
Cc1ccc(OCC(=O)Nc2cccc(C(=O)OCc3cc(=O)n4nc(C)sc4n3)c2)cc1 | / | -3.7%
O=C(Cc1ccccc1)NC(=S)Nc1ccc2oc(-c3ccccc3F)nc2c1 | 3.5% | 25.8%
O=C(COC(=O)c1cc(S(=O)(=O)N2CCOCC2)ccc1Cl)Nc1ccc2c(c1)OCO2 | 3.8% | 0.9%
Cc1ccc(NC(=O)C(=O)c2cn(CC(=O)N3CCCCC3)c3ccccc23)cc1 | 0.2% | -9.8%
COC(=O)c1cc([N+](=O)[O-])c(-n2ccnc2)c([N+](=O)[O-])c1 | -5.3% | 14.0%
COc1ccccc1CNC(=O)C(NS(=O)(=O)c1ccc2c(c1)OCCO2)C(C)C (stereo not given) | 2.8% | 1.9%
COc1cc(Cl)c(C)cc1NC(=O)Cn1cnc2sc(C)c(S(=O)(=O)N3CCCCC3)c2c1=O | / | 5.9%
O=C(O)COc1c(-c2ccc(Cl)cc2)oc2ccccc2c1=O | 18.3% | -11.9%
O=C(COC(=O)c1ccc([N+](=O)[O-])cc1Cl)Nc1cccnc1Cl | -2.4% | -12.4%
COc1ccc(Cl)cc1C(=O)Nc1c2c(nn1-c1ccc(Cl)cc1)CS(=O)(=O)C2 | / | -0.6%
C[C@H]1CCC[C@]2(CC(=O)c3cc(F)ccc3O2)C1 | 9.0% | 2.9%
Cn1cc(Cl)c(C(=O)OCC(=O)Nc2ccccc2)n1 | 9.9% | 9.7%
O=C(CCC1CCCCC1)NCCS(=O)(=O)N1CCN(c2ccc(F)cc2)CC1 | -14.3% | -2.9%
CCCC(=O)N(CCN1CCOCC1)c1nc2c(OCC)cccc2s1 | -5.1% | -16.0%
CCC(SC1=N/C(=C/c2ccccc2)C(=O)N1c1ccccc1)C(=O)Nc1cc(C)on1 (stereo not given) | 23.8% | -0.8%
Cc1ccc(C)c(NC(=O)Cc2coc3cc(C)cc(C)c23)c1 | / | -5.7%
CC1CC(C)(C)NC(=S)N1CCCC(=O)Nc1ccc(Cl)cc1 (stereo not given) | -1.4% | -2.9%
CSc1ccccc1OCc1cc(C(=O)NC(C)CCn2cccn2)no1 (stereo not given) | 2.3% | -1.1%
CCOC(=O)n1ccn(C)c1=S | -2.3% | /
Cc1cc(C)n(-c2ccc(C(=O)OCC(=O)NCc3ccco3)cc2)n1 | -3.6%[2.35 µM] | -10.6%
CCOc1nc(NC(=O)NS(=O)(=O)c2cccc(Cl)c2)nc(-c2ccccc2)n1 | -9.2% | -8.2%
Cc1ccc(C(=O)NCC(=O)OCC(=O)c2ccccc2)s1 | / | 18.4%
CCOc1ccccc1N1CCN(c2ncnc3scc(-c4ccc(OC)cc4)c23)CC1 | -0.8% | -0.7%
COc1ccc(C(=O)N2c3ccc(C)cc3C(C)(c3ccccc3)CC2(C)C)cc1 (stereo not given) | / | -22.0%
CCOC(=O)c1c(C)n(C)c2ccc(OC)c(NS(=O)(=O)CC)c12 | 4.1% | -6.4%
COC(=O)c1ccccc1NC(=O)COc1ccc2c(c1)OCO2 | 6.1% | 0.2%
Cc1ccccc1NC(=O)c1ccc(N(Cc2ccccc2)S(C)(=O)=O)cc1 | / | -7.1%
